Screening data from PubChem.
Sfp inh – qHTS Assay for Inhibitors of Bacillus subtilis Sfp phosphopantetheinyl transferase (PPTase). 4'-phosphopantetheinyl transferase ffp (Bacillus subtilis), Q9F4F7. Biochemical Sfp PPTase activity, qHTS. Potency, µM, inactives show max response, negative = inhibition, hits mostly inhibitors. 310,000 compounds, 3.5% hits; active = well fitted inhibition curve with a large enough effect; inconclusive = small, poorly fitted or top-dose-only effect, or another doubt; inactive = no such curve, though single readings can be large or run the other way;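 also: the enzyme is Sfp with the accession as filed and its product quenches rhodamine fluorescence; potency is read from the fitted curve at half-maximal effect; 0% = enzyme reaction without inhibitor and -100% = no enzyme wells; top concentration of the series not given in the record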
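Fluorescence-quenching assay with 15 nM Sfp, 5 uM rhodamine-CoA and 12.5 uM BHQ-2-labelled ybbR peptide in pH 7.6 Hepes/MgCl2 buffer. Enzyme was pre-incubated with compound for 15 min at room temperature. Rate was taken from the 30-min fluorescence change (525/598 nm).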
ClpP mod – qHTS Assay for Activators of ClpP; ATP-dependent Clp protease proteolytic subunit (Bacillus subtilis (strain 168)), P80244; purified B. subtilis ClpP, FRET peptide cleavage, 20 min; Potency, µM (series often up to 57.5 µM), inactives show at the top dose activity change, negative = active; 340,000 compounds, 1.9% hits; AID 651965, 2013; active = well fitted falling curve with a large enough effect; inconclusive = small, poorly fitted or top-dose-only effect; inactive = no such curve, though single readings can be large or run the other way; also: potency is read from the fitted curve at half-maximal effect; the source files actives as falling curves though it sought activators and does not explain the sign; nearly all actives have a fitted effect of over 65% in size; many hits overshoot -100%
Target sequence (P80244 whole entry, looked up): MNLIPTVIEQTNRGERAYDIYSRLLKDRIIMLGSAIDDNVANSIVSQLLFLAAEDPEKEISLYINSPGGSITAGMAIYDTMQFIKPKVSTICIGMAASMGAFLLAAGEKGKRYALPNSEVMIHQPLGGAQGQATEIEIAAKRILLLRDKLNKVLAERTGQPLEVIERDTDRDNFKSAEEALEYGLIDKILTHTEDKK
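FRET quenching reversal measured ClpP activation: 10 microg/mL B. subtilis ClpP at pH 8 with the FRET-FV decapeptide, read at 430 nm after 320 nm excitation. The 20-min minus 0-min signal was scaled between DMSO/no-enzyme wells and ADEP (5.8 microM final).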
gsp ag – qHTS for Agonist of gsp, the Etiologic Mutation Responsible for Fibrous Dysplasia/McCune-Albright Syndrome: qHTS | Potency, µM (titrated, usually from 76.9 µM), for inactives: top-dose activation (cAMP increase), hits mostly activators | gsp mutant cells, cAMP HTRF, 30 min; control for the full effect not named in the record | 340,000 compounds, 0.13% hits; active = well fitted activation curve with a large enough effect; inconclusive = small, poorly fitted or top-dose-only effect, or another doubt; inactive = no such curve, though single readings can be large or run the other way; cell line not stated here;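 also: phosphodiesterase inhibitor Ro 20-1724 added with compounds to block cAMP breakdown; potency is read from the fitted curve at half-maximal effect; nearly all actives have a fitted effect of over 60% in size; about a fifth of the inactives were tested at one dose only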
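Cells stably selected in G418 were plated at 2000/well, grown 16-24 hr, then given compounds in DMSO with the PDE inhibitor […] (300 uM solution added) for 30 min at 37C; cAMP was read by HTRF.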
TRPV1 PAM – HTS Assay for Compounds that Act as Potentiators of the Vanilloid Receptor 1; Transient receptor potential cation channel subfamily V member 1 (Homo sapiens), Q8NER1; TRPV1-expressing cells, Fluo-8 calcium influx, capsaicin EC20 potentiation; host cell line not named in the record; control for the full effect not named in the record; potentiation, % at 8.33 µM; 320,000 compounds, 0.02% hits; AID 540277, 2011; active means potentiation above 80%; inconclusive means 30% to 80%; inactive means below 30%; also: 0% is about no effect
Target sequence (Q8NER1 whole entry, looked up): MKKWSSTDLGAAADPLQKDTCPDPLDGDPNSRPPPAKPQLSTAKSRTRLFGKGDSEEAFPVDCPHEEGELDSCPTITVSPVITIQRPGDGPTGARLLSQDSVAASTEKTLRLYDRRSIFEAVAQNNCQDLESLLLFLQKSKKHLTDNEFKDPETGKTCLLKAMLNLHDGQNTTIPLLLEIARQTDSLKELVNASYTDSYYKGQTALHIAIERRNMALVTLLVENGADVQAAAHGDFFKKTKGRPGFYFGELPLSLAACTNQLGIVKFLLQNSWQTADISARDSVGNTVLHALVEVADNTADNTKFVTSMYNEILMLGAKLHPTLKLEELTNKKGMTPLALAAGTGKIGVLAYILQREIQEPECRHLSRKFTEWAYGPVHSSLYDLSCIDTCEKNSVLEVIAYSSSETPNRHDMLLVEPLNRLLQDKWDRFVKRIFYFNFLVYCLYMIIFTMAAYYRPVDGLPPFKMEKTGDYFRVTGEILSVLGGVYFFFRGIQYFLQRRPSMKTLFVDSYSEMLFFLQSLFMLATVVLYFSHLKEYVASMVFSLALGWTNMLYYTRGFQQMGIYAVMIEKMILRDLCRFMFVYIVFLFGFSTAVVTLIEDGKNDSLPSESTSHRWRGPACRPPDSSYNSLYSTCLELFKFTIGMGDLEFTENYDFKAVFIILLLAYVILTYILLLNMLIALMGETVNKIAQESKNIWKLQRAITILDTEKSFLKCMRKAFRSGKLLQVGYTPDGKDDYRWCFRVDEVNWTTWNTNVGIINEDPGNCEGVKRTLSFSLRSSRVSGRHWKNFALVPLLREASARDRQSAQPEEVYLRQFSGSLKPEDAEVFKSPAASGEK
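TRPV1-expressing cells were cultured overnight at 35.5C and loaded with Fluo-8 calcium dye for 40 to 90 min at room temperature. After a 10 s baseline, compound was added and calcium influx was read kinetically for 3 min (ex 480/em 520 nm).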
Menin-MLL FL inh – qHTS Assay for Inhibitors Targeting the Menin-MLL Interaction in MLL Related Leukemias: Competition With Fluorescein Labeled MLL-derived Peptide | FP activity change, % at 61.4 µM | 290,000 tested, under 10 active | AID 1766, 2009 | Fluorescence polarization, fluorescein-MLL peptide displacement from menin; inconclusive = falling polarisation curve, or a change in total fluorescence; inactive = total fluorescence flat and polarisation flat or rising; no compound was filed as active; the % refers to the polarisation; negative = inhibition;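 also: % of control where 0% means no effect; inhibitors lower the polarisation; unlabelled MLL peptide was the positive control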
D2 PAM – Beta-Arrestin HTS for Positive Allosteric Modulators of the Human D2 Dopamine Receptor: Potentiators; 360,000 compounds, 0.23% hits; DiscoveRx D2 beta-arrestin cells, luminescence, 90 min; 100% = 57 uM dopamine signal; potentiation, % (no concentration beside the values); AID 624464, 2012; active = potentiation of 50% or more; inconclusive = 30% to 50%; inactive = 30% or less;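 also: compound concentration not given in the record; tested on top of an EC20 dose of dopamine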
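D2 cells co-treated with compound plus 50 nM dopamine (EC20) for 90 min at 37 deg C to detect potentiation. Beta-arrestin recruitment was read as enzyme-fragment luminescence after 1 h at ambient temperature. Full response was set by 57 uM dopamine.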
gsp antag – qHTS for Antagonists of gsp, the Etiologic Mutation Responsible for Fibrous Dysplasia/McCune-Albright Syndrome: qHTS | gsp-mutant cells, cAMP HTRF, 30 min; control for the full effect not named in the record | Potency, µM (highest dose often 76.9 µM), without a hit: top-dose activity change, negative = inhibition, most hits filed as inhibitors | 340,000 compounds, 0.4% hits; active = falling curve of any shape with a large fitted effect; inconclusive = falling curve, mostly with a smaller effect; inactive = flat or rising curve; cell line not stated here;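 also: intracellular cAMP measured with PDE inhibitor Ro 20-1724 present during compound exposure; potency is read from the fitted curve at half-maximal effect; % is scaled to controls: 0 for no effect and ±100 for the full control effect; nearly all actives have a fitted effect of over 65% in size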
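Cells, 2000/well, grown 16–24 h in DMEM 10% FBS with 0.5 mg/ml G418, then compounds plus […] (300 uM addition stock), 30 min at 37C. cAMP read by HTRF (cAMP-d2 and anti-cAMP antibody-K in lysis buffer) after 30 min RT.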
* hit, by the source's call; u = inconclusive; x = no result given; & = joins results of further samples; [ ] = another dose, or the depositor's remark.

Compound	Sfp inh	ClpP mod	gsp ag	TRPV1 PAM	Menin-MLL FL inh	D2 PAM	gsp antag
COC(=O)c1sccc1NC(=O)C1CC2CCC1C2 (stereo not given)	11%	-4.0%	0%	-4	0.6	1	u
O=C1COc2ccc(-c3csc(NCC4CCCO4)n3)cc2N1 (stereo not given)	-18%	-0.2%	-25%	10	1.5	-13	-19%
N#Cc1ncc(C(F)(F)F)cc1Sc1ccccc1N	2%	-5.1%	-1%	-6	2.2	-1	-7%
Cc1cc(=O)[nH]c(SCc2cc(=O)n3nc(C)sc3n2)n1	u	-1.0%	u	9	-1.4	-1	2%
Cc1ccc(Cn2c(=N)c(C#N)cc3c(=O)n4cccc(C)c4nc32)cc1	4%	x	x	15	-2.4	x	x
COc1ccccc1N1C(N)=NC(N)=NC1(C)C	13%	-3.0%&0.9%	-33%&-19%[inhibitor]	-12	-0.1	-15&-22	1%
CCC(C(=O)Nc1nccs1)c1ccccc1 (stereo not given)	-9%	1.3%	9%	2	1.0	1	7%
Cc1nc(-c2ccccc2)sc1C(=O)/C=C/c1ccccc1	-47%	1.5%	-21%	-13	1.2	-6	-18%
Nc1ccc(-n2nncc2-c2ccc(Cl)cc2)cc1	-10%	-0.1%	-3%	29	2.3	10	2%
O=C(CNC(=O)c1ccc(Br)o1)NCCc1ccc(F)cc1	5%	0.4%	u	0	-1.0	-38	1%
Cn1cccc1CC(=O)NNC(=O)Nc1ccc(F)cc1	16%	0.9%	17%	8	-0.7	-4	-1%
Cc1cccc(C(=O)N2CCN(C(=O)c3cccc(C)c3)C(C)C2)c1 (stereo not given)	5%	2.0%	-8%	u	-1.8	24	5%
CCC(C)(C)n1nnnc1C(c1ccccc1)N1CCN(Cc2ccccc2)CC1 (stereo not given)	14%	x	10%	4	1.2	1	7%
CCC(=O)N(c1nnc(SCC(=O)Nc2ccc(N3CCOCC3)cc2)s1)C1CC1	x	2.8%	12%	-1	x	-3	1%
COc1ccccc1C(=O)N(Cc1ccco1)C1CCS(=O)(=O)C1 (stereo not given)	-1%	-0.9%	-29%	-4	1.7	13	6%
O=C(COc1ccc(Cl)cc1Cl)NC1CC1	x	0.4%	-2%	x	x	-14	x
COc1ccc(S(=O)(=O)N2CCC(C(=O)Nc3c(F)cccc3F)CC2)cc1	-3%	0.2%	15%	3	3.5	-3	3%
COc1ccccc1CNC(=O)/C=C/c1cc2c(cc1Br)OCO2	8%	-14%	-34%[inhibitor]	0	6.1	13	-17%
Cc1ccc(N2CCN(/N=C/c3ccccc3)CC2)cc1	19%	2.7%	6%	u	-5.4	-2	5%
O=C(C1=C(O)C(=O)N(CC2CCCO2)C1c1ccccc1)c1ccco1 (stereo not given)	18%	x	19%[15.4 µM]	-3	1.1	-4	1%
CC(C)(C)c1ccc(C(=O)NC(=S)NCc2cccnc2)cc1	-15%	-0.7%	-48%[inhibitor]	-16	0.2	-11	-15%
O=C(NCCO)c1ccc2c(c1)S(=O)(=O)c1ccccc1C2=O	5%	-2.3%	x	-38	3.0	4	6%
CCn1nnc2cc(C(=O)NCC(c3ccccc3OC)N(C)C)ccc21 (stereo not given)	12%	-5.8%	-3%[15.4 µM]	0	10	-10	19%
COc1ccc(OC)c(S(=O)(=O)N2CCCC(N3CCN(c4ccccc4)CC3)C2)c1 (stereo not given)	16%	-0.3%	-23%	1	-1.5	-25	-6%
O=C(COC(=O)c1cc(=O)[nH]c2ccccc12)Nc1nc(-c2ccc(F)cc2)cs1	x	-3.7%	12%	x	x	10	u
COc1ccc(OC)c(-c2cc(C(=O)Nc3ccccc3C(N)=O)c3ccccc3n2)c1	x	-4.1%	-2%	x	x	-13	-19%
Cc1ccc(C)c(S(=O)(=O)Nc2ccc(C(=O)NCCc3ccccn3)cc2)c1	13%	0.0%	-2%[15.4 µM]	-1	3.8	-6	0%
CC(=O)O/N=C/c1c(Cl)n(C)c2ccccc12	15%	-2.6%	0%[15.4 µM]	0	-5.8	-2	6%
Cc1cc(Br)ccc1OCc1nnc(-c2ccccc2)o1	x	2.1%	-13%	x	x	-3	u
COc1ccc(NC(=S)N2CCC(NC(=O)C3CCCCC3)CC2)cc1	1%	x	u	14	-0.3	-1	-1%

An excerpt from above in order of formula weight, low to high.
Compound	Sfp inh	ClpP mod	gsp ag	TRPV1 PAM	Menin-MLL FL inh	D2 PAM	gsp antag
CC(=O)O/N=C/c1c(Cl)n(C)c2ccccc12	15%	-2.6%	0%[15.4 µM]	0	-5.8	-2	6%
Cc1cccc(C(=O)N2CCN(C(=O)c3cccc(C)c3)C(C)C2)c1 (stereo not given)	5%	2.0%	-8%	u	-1.8	24	5%
O=C(C1=C(O)C(=O)N(CC2CCCO2)C1c1ccccc1)c1ccco1 (stereo not given)	18%	x	19%[15.4 µM]	-3	1.1	-4	1%
Cc1ccc(C)c(S(=O)(=O)Nc2ccc(C(=O)NCCc3ccccn3)cc2)c1	13%	0.0%	-2%[15.4 µM]	-1	3.8	-6	0%

New compounds follow
Compound	Sfp inh	ClpP mod	gsp ag	TRPV1 PAM	Menin-MLL FL inh	D2 PAM	gsp antag
COc1cccc(C(=O)/C=C/Nc2cccc(O)c2)c1	-7%	-2.3%	-18%	-12	-1.5	-7	-32%
COc1cccc(CCNC(=O)CC2C(=O)NCCN2Cc2ccc(Cl)c(F)c2)c1 (stereo not given)	4%	x	-12%	-7	0.9	-4	1%
Cn1c2ccccc2c2cc(C(=O)N3CCOCC3)sc21	45µM*	-19%	21%	-8	1.2	-13	-9%
CCCCc1nnc(NC(=O)CSc2nc(=O)cc(N)n2-c2ccccc2)s1	-6%	-0.6%	-3%	-13	0.1	-11	8%
O=C(CSc1nncn1-c1ccccc1)Nc1c(F)cccc1F	6%	x	-24%[15.4 µM]	22	-1.9	-5	0%
Cc1cc(NC(=O)CCN2C(=O)C3C4C=CC(C4)C3C2=O)ccc1Br (stereo not given)	-1%	x	14%[15.4 µM]	-14	-0.8	-6	0%
CSCC[C@H](NC(=O)OC(C)(C)C)C(=O)N1CCC(C(=O)N[C@H](C(=O)O)C(C)C)CC1	20%	-0.3%	4%	-2	1.6	1	0%
OCCSc1nnc(Nc2ccccc2)s1	16%	0.0%	-4%	15	3.6	0	2%
CN1CCN(CCCC(=O)c2ccc(C3CCCC3)cc2)CC1	-30%	-4.9%	-18%[15.4 µM]	0	2.5	-16	13%
CCOC(=O)/C=C1/SCC(=O)N1CC(=O)Nc1ccc2c(c1)CCC2	x	-6.6%	-1%[15.4 µM]	x	x	-24	-10%
COc1cc(NS(=O)(=O)c2ccc(NC(=O)Cc3ccccc3)cc2)nc(OC)n1	5%	x	-14%	1	3.4	-3	-7%
CCOC(=O)CC1=CSC2=NS(=O)(=O)CCN12	2%	-1.4%	u	20	-1.4	3	9%
CCN1CCN(C(c2ccccn2)c2c(NC(=O)c3ccccc3)sc(C)c2C)CC1 (stereo not given)	-8%	-1.6%	18%	1	-1.1	-9	-3%
CC(C)CC(=O)N1CC(C)N(C(=O)CC(C)C)CC1C (stereo not given)	8%	x	x	-2	4.9	x	x
Cc1ccc(C)c(C(=O)COC(=O)c2n[nH]c3ccccc23)c1	x	0.9%	6%[15.4 µM]	x	x	7	-12%
c1ccc2c(Nc3ccc(N4CCOCC4)cc3)nc(N3CCOCC3)nc2c1	-6%	x	19%	9	-5.2	-2	-17%
CCc1ccc(NC(=O)CSc2nc3nc(C)cc(C)n3n2)cc1	6%	-3.4%&-4.1%	8%	-5	x	-10	5%
COC(=O)NCC(c1ccco1)N1CCN(c2ccc(F)cc2)CC1 (stereo not given)	9%	0.5%	12%[15.4 µM]	0	5.5	-6	3%
Cc1ccc2nc(SCC(=O)N3CCCC3)[nH]c2c1	4%	0.5%	5%	6	-1.5	-26	11%
COc1cccc(OCCCCCN2CCOCC2)c1	2%	-0.5%	11%	3	-1.2	-11	14%
Cc1ccc(C(=O)NNC(=O)c2ccc3c(c2)OCCO3)cc1	x	-18%	1%	9	x	0	12%
Cc1c(NC(=S)NC(=O)c2ccc(Cl)cc2)c(=O)n(-c2ccccc2)n1C	x	0.4%	2%[15.4 µM]	x	x	-11	11%
COc1cccc(N2C(=O)CC(Sc3nc(C)cc(C)n3)C2=O)c1 (stereo not given)	-1%	30%	12%[15.4 µM]	-18	-3.4	-7	-4%
COc1ccc(CCNC(=O)c2cccnc2Cl)cc1OC	x	-1.6%	15%	x	x	-16	2%
CC(C)[C@H](NC(=O)OC(C)(C)C)C(=O)N1CCC(C(=O)N[C@@H](C)C(=O)Nc2ccc(F)cc2)CC1	1%	-2.8%	4%	3	15	-8	7%
CCCOc1ccc(/C=N/NC(=O)c2ccc3c(c2)OCO3)c(OCCC)c1	-5%	x	29%	-28	-12	-3	-20%
CCOc1c(/C=C(\C#N)C(N)=O)c2ccccc2n1CC	-5%	0.1%	16%	2	3.7	-17	-2%
CC(=O)c1cccc(NC(=O)N2CCCCCC2)c1	14%	2.3%	13%	-7	8.6	-5	16%
COc1ccc(NC(=O)CCN2CCN(c3ccccc3F)CC2)c(OC)c1	9%	0.1%	-18%[15.4 µM]	-20	-3.0	13	6%
O=C(Nc1cc(N2CCOCC2)ncn1)c1ccc(F)cc1	19%	x	-29%[15.4 µM]	-3	5.3	13	13%
